Screens: PubChem BioAssay, National Center for Advancing Translational Sciences (NCATS)
A647 autofl – compound autofluorescence in A647 spectral region | Compound fluorescence, A647 channel (570/671 nm), Tris buffer | max dye-equivalent concentration, M | 59,000 tested, under 10 active; active means above 1 µM dye equivalent; inconclusive means 0.1 to 1 µM; inactive means 0.1 µM or less;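 also: values scaled relative to a standard on each plate; highest value over a series up to 38 µM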
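Tris 100 mM pH 8.0; cpd + A647 stds pin-transferred; 15 min RT; CCD imager, ex 570/em 671. Output = A647-equivalent conc. per cpd conc.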
AID923 – qHTS Assay for Allosteric/Competitive Inhibitors of Caspase-1: Spectroscopic Profiling in AFC Spectral Region | compound fluorescence, AFC spectral region (405/520 nm); almost no hit is shown here | Potency, µM (highest dose often 57.5 µM), for the others: at the top dose fluorescence increase, most hits filed as activators | 75,000 tested, 1.1% active; active = well fitted activation curve with a large enough effect; inconclusive = small, poorly fitted or top-dose-only effect;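 also: potency is read from the fitted curve at half-maximal effect; 0% is about no effect; scaled to a free AFC standard on each plate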
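Compound autofluorescence profiled at 405 nm ex/520 nm em during kinetic caspase 1 run (50 nM enzyme, 5 uM Ac-WEHD-AFC, HEPES pH 7.5, 10 mM DTT). Titration up to 57 uM; baseline from regression intercept, normalized to AFC standard curve.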
A488 fluor – A488 region autofluorescence; AID 591; 59,000 tested, 0.1% active; max dye equivalency, M; compound autofluorescence, A488 spectral region, dye equivalency; stronger effect = higher value; active = above 10 nM dye equivalent; inconclusive = 1 to 10 nM; inactive = 1 nM or less; about half of its hits are not listed in these tables;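 also: highest value over a series up to 38 µM; compound alone in buffer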
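Readout is A488 dye-equivalent concentration, calibrated by a per-plate six-point Alexa 488 series. Compounds in 100 mM Tris buffer pH 8.0 were incubated 15 min at room temperature. Plates were imaged using 480 nm excitation/540 nm emission filters.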
Resorufin autofl – compound fluoresces in the resorufin spectral region. Compound fluorescence, resorufin region 547/598 nm, buffer; stronger effect = higher value. max dye-equivalent concentration, M. 59,000 tested, 0.04% active. AID 588; active = above 10 nM dye equivalent; inconclusive = 1 to 10 nM; inactive = 1 nM or less; a few of its hits are not listed in these tables; also: highest value over a series up to 38 µM
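Read-out: intrinsic compound fluorescence at ex 547/em 598 nm after 15 min at RT in pH 8.0 Tris (100 mM). Values expressed as resorufin-equivalent concentration from per-plate standard series.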
TSHR ag – activates the human thyroid stimulating hormone receptor; AID 926; HEK293-CNG-TSHR cells (CNG channel as cAMP sensor), membrane potential dye, cAMP; Potency, µM (highest dose often 57.1 µM), for the others: at the top dose activation, usual class: activators; 73,000 tested, 0.48% active; P16473; active = well fitted activation curve of enough size with the parental cells flat; inconclusive = any curve in the parental cells; inactive = parental cells flat and receptor cells flat or falling; also: potency is read from the fitted curve at half-maximal effect; % of control where 0% means no effect; weak receptor curves with flat parental cells got no call and are not listed
Target sequence (P16473 whole entry, looked up): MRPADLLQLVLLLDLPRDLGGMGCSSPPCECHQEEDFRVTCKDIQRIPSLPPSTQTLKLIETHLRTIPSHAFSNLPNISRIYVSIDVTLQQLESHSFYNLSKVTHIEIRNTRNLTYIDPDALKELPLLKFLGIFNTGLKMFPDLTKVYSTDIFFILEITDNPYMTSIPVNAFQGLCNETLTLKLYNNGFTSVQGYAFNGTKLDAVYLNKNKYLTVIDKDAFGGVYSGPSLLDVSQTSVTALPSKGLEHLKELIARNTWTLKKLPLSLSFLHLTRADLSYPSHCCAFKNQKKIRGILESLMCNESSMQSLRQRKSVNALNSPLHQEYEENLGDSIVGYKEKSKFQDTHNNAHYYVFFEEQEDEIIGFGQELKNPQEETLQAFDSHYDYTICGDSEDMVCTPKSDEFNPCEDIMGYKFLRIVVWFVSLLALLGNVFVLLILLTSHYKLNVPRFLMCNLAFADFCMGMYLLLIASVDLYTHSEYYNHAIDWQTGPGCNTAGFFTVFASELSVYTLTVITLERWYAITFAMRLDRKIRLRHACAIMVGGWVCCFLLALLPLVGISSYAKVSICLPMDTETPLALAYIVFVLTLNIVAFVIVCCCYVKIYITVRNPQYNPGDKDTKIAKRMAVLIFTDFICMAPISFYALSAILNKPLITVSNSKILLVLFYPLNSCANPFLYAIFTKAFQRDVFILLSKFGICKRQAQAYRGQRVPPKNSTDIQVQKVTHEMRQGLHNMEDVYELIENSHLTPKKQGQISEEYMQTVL
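cAMP rise detected as CNG-channel membrane depolarization by fluorescent dye (emission 590 nm), 30 min after compound, following 60 min dye loading containing 100 uM RO 20-1724 at room temperature. Cells: TSHR/CNG HEK 293, with parental CNG HEK 293 as control.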
Active calls of the source: *; i = inactive; ? = inconclusive; · = not tested or not shown; [ ] = dose if it differs, or a comment. Not all compounds are listed. The share of hits here may be higher or lower than overall.

Order of values: A647 autofl, AID923, A488 fluor, Resorufin autofl, TSHR ag
O=C(CC1(O)C(=O)Nc2ccccc21)c1ccc(-n2cccc2)cc1 (stereo not drawn)
 : 2.3e-08, 0.7%, i, i, -12%
O=C(O)[C@@H]1[C@@H](C(=O)NCc2cccnc2)[C@@H]2C=C[C@@H]1O2
 : 5.5e-08, -3.2%[11.5 µM], i, i, 0%[11.4 µM]
C=CCSc1nc2c(c(=O)[nH]c(=O)n2C)n1Cc1ccc(C)cc1
 : ·, 0.6%, ·, ·, 6%
COC(=O)c1ccc(NC(=O)CN2C(=O)CSC2=O)cc1
 : 7.4e-09, -0.2%, i, i, -4%
COC(=O)N1[C@H](C)C=C[C@]1(Cc1ccccc1)C(=O)OC
 : ·, 2.3%, ·, ·, 15%
Cn1cc(C(=O)NCCN2CCN(c3cccc(Cl)c3)CC2)c2c3ccccc3n(C)c2c1=O
 : 1.6e-08, 0.6%, i, i, -9%
CCOC(=O)c1c(C)[nH]c2cc(Br)c(OC)cc12
 : ·, 4.0%, ·, ·, 10%
CCN(CC)C(=O)c1sc2nc(-c3ccc(OC)cc3)cn2c1C
 : 3.2e-09, 1.2%, i, i, ?
COCCNC(=O)Cn1nc(C)c2ccccc2c1=O
 : 2.1e-08, -0.6%, i, i, -4%
COc1ccc(CCNC(=O)CC2COc3ccccc3O2)cc1OC (stereo not drawn)
 : 2.2e-08, -0.9%, i, i, 13%
COCCCNC(=O)CSC1=Nc2ccccc2C2=NC(CC(=O)NCc3ccccc3)C(=O)N12 (stereo not drawn)
 : 2.9e-09, 2.1%, i, i, -5%
COC(=O)c1c(NC(=O)c2nc3ncccn3n2)sc(C(=O)N(C)C)c1C
 : 5.2e-08, 0.4%, i, i, 2%
COc1ccc(S(=O)(=O)NCc2ccccn2)c(Cl)c1Cl
 : 7e-09, -1.1%, i, i, 6%
CC(Oc1ccccc1)C(=O)NC1CC(C)(C)NC(C)(C)C1 (stereo not drawn)
 : ·, -1.5%, ·, ·, ?
CC1(C)CC(=O)C=C(NCc2cccnc2)C1
 : ·, 2.6%, ·, ·, -3%
CCn1c(C(C#N)/C(=N\S(=O)(=O)c2cccs2)c2ccccc2)nc2ccccc21 (stereo not drawn)
 : 2.3e-09, 4.0%, i, i, 12%
COC(=O)c1ccc(NC(=O)CSc2nncn2C)cc1
 : 7.7e-09, -0.8%, i, i, 4%
Cc1nnc2c(-c3ccccc3)nc3ccccc3n12
 : ·, 1.8%, ·, ·, -2%
COc1ccc(OCC(=O)Nc2ccc(S(=O)(=O)Nc3cc(C)nc(C)n3)cc2)cc1
 : 1.7e-08, -0.5%, i, i, 0%
O=C(NCc1ccccc1)N1CCC(n2cnc3cc(F)ccc32)CC1
 : 2e-09, -0.4%, i, i, 10%
CCSc1nnc(-c2ccccc2NC(=O)CC)c(=O)[nH]1
 : 3.2e-08, 1.5%, i, i, 3%
O=C(c1ccncc1)N1CCC2(CC1)CCN(c1ncccn1)CC2
 : 1e-09, 2.6%, i, i, 9%
O=c1cnc2cnc(Oc3cccc(Cl)c3)nc2n1CCc1ccccc1
 : 1e-09, 8.2%, i, i, ?
Clc1ccc(Oc2cccc(/C=N/n3cnnc3)c2)cc1
 : 1e-09, -1.3%, i, i, 4%[11.4 µM]
CCN(CC)CC(C)CNC(=O)CC(C(=O)N1CCc2ccccc21)n1ccnc1 (stereo not drawn)
 : 9.6e-09, -2.6%, i, i, -1%
CN(C(=O)c1cccc(C#N)c1)c1nnc(C2CCOC2)s1 (stereo not drawn)
 : 1e-09, -0.3%, i, i, 11%
CCCn1nnc(NC(=O)c2ccccc2Br)n1
 : 1.9e-08, 1.4%, i, i, 1%
O=C(O)c1ccccc1NS(=O)(=O)c1ccccc1C(F)(F)F
 : 7e-09, -2.0%, i, i, 5%
CCOC(=O)C1=C(C)NC(SCC(=O)O)=NC1c1ccccc1 (stereo not drawn)
 : 2.7e-09, 0.2%, i, i, ·
CO[C@H]1COC(=O)C/C=C\[C@H](C)[C@@H](OC)COC(=O)[C@@H](C)COC(=O)C/C=C\[C@@H]1C
 : ·, -1.4%[11.5 µM], ·, ·, -6%[11.4 µM]

Next entries.
Order of values: A647 autofl, AID923, A488 fluor, Resorufin autofl, TSHR ag
COc1cc(C(C)=O)ccc1OCC(O)CN1CCN(S(=O)(=O)c2ccccc2)CC1 (stereo not drawn)
 : 1e-09, -0.7%, i, i, -4%
CN(C)CCCCNC(=O)c1ccc(Cc2nc3ccccc3[nH]2)cc1
 : ·, -0.3%, ·, ·, 0%
CCOc1ccc(Nc2nc(Cc3nnc(SCC(N)=O)o3)cs2)cc1
 : 1e-09, -1.0%, i, i, -1%[11.4 µM]
COc1ccc(C(=O)COC(=O)CCn2nnc(-c3cccs3)n2)cc1
 : 9.4e-09, -0.5%, i, i, ?
Cc1cc(C(=O)Nc2ccccn2)no1
 : 1e-09, 2.0%, i, i, -1%
CCn1ncc(C2=NOC(C(=O)N3CCN(c4ccccc4)CC3)C2)c1C (stereo not drawn)
 : ·, -2.8%, ·, ·, -10%
COc1ccccc1C1/C(=C(/O)c2ccc(Cl)cc2)C(=O)C(=O)N1CCN1CCOCC1 (stereo not drawn)
 : 1e-09, 4.2%, i, i, -1%
O=C(c1cc2c(s1)CCCCC2)N1CCN(c2ncccn2)CC1
 : 5.2e-09, 0.5%, i, i, 14%
C/C(=C1\SC(N2CCOCC2)=NC1=O)c1ccccc1
 : ·, -1.8%, ·, ·, 3%[11.4 µM]
CCOC(=O)C(C(=O)OCC)=C1OC(=O)c2ccccc21
 : ·, -0.6%, ·, ·, -5%
CCOC(=O)CC1=NS(=O)(=O)c2ccccc2N1
 : 1.8e-08, 3.7%, i, i, -5%
N#Cc1c(N)nc(SCC(=O)OCc2ccccc2)c(C#N)c1-c1ccco1
 : 3.2e-08, 15%, i, i, ?
Cc1cccc(NS(=O)(=O)c2cccc3cccnc23)n1
 : ·, -1.1%, ·, ·, -4%
CCOC(=O)c1cnc(N(C)C)nc1SC(=N)N
 : 4.3e-09, -0.8%[11.5 µM], i, i, -1%[11.4 µM]
CC(C)NC(=O)Cn1c(SCC(=O)N2CCCCCC2)nc2ccccc21
 : 1.6e-09, 0.9%, i, i, 24%
Cc1ccc2cc(S(=O)(=O)NCCCC(=O)O)ccc2c1
 : 5.7e-09, -0.8%, i, i, 13%
CCSc1nnc(NC(=O)C2(C)Cc3ccccc3C(=O)O2)s1 (stereo not drawn)
 : 4e-08, 0.4%, i, i, 7%
CCOC(=O)c1sc2nc(CSc3nc4ccccc4n3CC)[nH]c(=O)c2c1C
 : 1e-09, 2.1%, i, i, 15%
COCC(=O)N(C)C1(c2nnnn2CCOC(=O)Nc2cccc3ccccc23)CCCC1
 : 3.8e-08, 1.3%, i, i, 2%
COc1ccc(Cc2nnc(NS(=O)(=O)Cc3ccccc3)s2)cc1
 : 1.2e-08, -0.9%, i, i, 7%
Cc1c(NC(=O)c2cc(-c3ccc4c(c3)OCO4)on2)c(=O)n(-c2ccccc2)n1C
 : 1e-09, -0.4%, i, i, 15%
CC(=O)NC(O)C(=O)c1ccccc1 (stereo not drawn)
 : ·, 0.1%, ·, ·, 0%
CC(C)(C#N)Nc1ccccc1
 : 1.4e-08, -0.8%, i, i, 0%
Cc1ccc(CSC(N)=Nc2ccccc2)cc1C
 : 2.2e-08, 1.3%[11.5 µM], i, i, 10%[11.4 µM]
CSc1nnc(-c2ccc(F)cc2)o1
 : 5.7e-08, 0.2%, i, i, -2%
CC(=O)OCCCN1C(=O)c2ccc(Br)cc2C1=O
 : 3.8e-09, 1.2%, i, i, 10%
CCOc1ccccc1NC(=O)CSc1nnc(CNC(=O)c2ccco2)o1
 : 3.5e-09, -1.7%, i, i, 4%[11.4 µM]
CN(C(=O)CSc1nc(-c2ccc(F)cc2)cs1)C1CCS(=O)(=O)C1 (stereo not drawn)
 : 1e-09, -2.1%, i, i, -6%
COc1ccc(OC)c(CN2CCN(C(=O)c3cccc4ccccc34)CC2)c1
 : 4.1e-09, -0.4%, i, i, 10%
CN(CC(=O)N1CCc2ccccc21)S(=O)(=O)c1ccc(Cl)cc1
 : 1.2e-09, -1.6%, i, i, ?

(continued)
Order of values: A647 autofl, AID923, A488 fluor, Resorufin autofl, TSHR ag
O=C(CCc1ccccc1)Nc1ccncc1
 : ·, 1.9%, ·, ·, 3%
CCOc1ccccc1-c1nn2c(Cc3ccccc3)nnc2s1
 : 4.8e-09, -2.2%, i, i, ?
COc1cc2c(cc1OC)C(C(=O)Nc1ccccn1)C(c1cccnc1)N(C)C2=O (stereo not drawn)
 : 3.1e-08, 0.3%, i, i, 1%[11.4 µM]
CC(=O)NC12CC3CC(C1)CC(C(=O)OCC(=O)NC(=O)c1cccn1C)(C3)C2
 : 2.2e-09, -1.0%, i, i, 2%
Cc1ccsc1C1NC(=O)c2ccccc2N1 (stereo not drawn)
 : 1e-09, 2.2%, i, i, 4%
CC(=O)C1=C(O)C(=O)N(CCN2CCOCC2)C1c1ccc(N(C)C)cc1 (stereo not drawn)
 : 4.7e-09, 1.5%, i, i, 9%
O=C(O)C1CCN(C(=O)c2ccccc2C(=O)N2CCC(C(=O)O)CC2)CC1
 : 4.4e-08, 0.7%, i, i, -2%
Cc1ccc(C(=O)CSc2n[nH]c(-c3ccco3)n2)cc1C
 : ·, -1.5%, ·, ·, 11%[11.4 µM]
O=C(c1ccc2nc(N3CCOCC3)sc2c1)N1CCCC1
 : ·, 2.2%, ·, ·, ?
COc1ccc(/C=N/n2c(SC)nnc2-c2ccccc2)cc1C
 : ·, 2.0%, ·, ·, ?
COCc1[nH]nc2c1C1(C(=O)N(C)c3ccccc31)C(C#N)=C(N)O2 (stereo not drawn)
 : 5.2e-09, 2.0%, i, i, 1%
Cc1ccc(-c2noc(CN3CCC(C(N)=O)CC3)n2)cc1
 : 1.5e-08, -0.6%, i, i, 3%
Cc1ccc(NC(=O)c2oc3c(c2C)C(=O)CC(C)(C)C3)cc1
 : 1e-09, -2.1%, i, i, 23%
CC(C)=CCC/C(C)=C/C=O
 : ·, -1.6%, ·, ·, -2%
COc1cccc(C(=O)Nc2ccc(N(C)C)cc2)c1OC
 : 1e-09, 0.4%, i, i, -7%
COc1ccc(S(=O)(=O)NCc2ccccn2)cc1Cl
 : 1.6e-08, -3.0%, i, i, 7%
CCCCSc1nn[nH]n1
 : 1.2e-09, -1.4%, i, i, -2%
Nc1c(NC2CCCCC2)c2ccccc2oc1=O
 : 1.5e-09, 1.2%, i, i, 5%
C[n+]1cccc(/C=C\c2ccc3cccc(O)c3n2)c1
 : 2.3e-09, -0.4%[11.5 µM], i, i, 15%[11.4 µM]
O=C(c1ccco1)N1CCN(S(=O)(=O)c2ccc(S(=O)(=O)NC3CCCCC3)cc2)CC1
 : 4.3e-08, 0.1%, i, i, ?
COc1cccc(NC(=O)N2CCC(N3CCCCC3)CC2)c1
 : 1.8e-08, 4.2%, i, i, 4%
O=C1CNCCCN2CCN(CCCNCC(=O)Nc3ccc(cc3)S(=O)(=O)c3ccc(cc3)NC(=O)CNCCCN3CCN(CCCNCC(=O)Nc4ccc(cc4)S(=O)(=O)c4ccc(cc4)N1)CC3)CC2
 : 1e-09, ·, i, i, ?
COc1ccc(C2C(C#N)=C(N)Oc3cc(N)ccc32)cc1OC (stereo not drawn)
 : ·, 14%, ·, ·, 9%
O=C(CN1C(=O)C2(OCCCO2)c2ccccc21)NCCc1ccccc1
 : 1.5e-08, -1.2%, i, i, ?

Copied from the entries so far, three compounds:
Order of values: A647 autofl, AID923, A488 fluor, Resorufin autofl, TSHR ag
O=C(CCc1ccccc1)Nc1ccncc1
 : ·, 1.9%, ·, ·, 3%
CCOc1ccccc1-c1nn2c(Cc3ccccc3)nnc2s1
 : 4.8e-09, -2.2%, i, i, ?
COc1cc2c(cc1OC)C(C(=O)Nc1ccccn1)C(c1cccnc1)N(C)C2=O (stereo not drawn)
 : 3.1e-08, 0.3%, i, i, 1%[11.4 µM]
